rRNA inh HTS = inhibits bacterial ribosomal RNA function over humanized ribosomes | AID 720706 | hit rate 1.6% among 350,000 | E. coli WT GFP vs humanized-ribosome RFP mutants, fluorescence, 24 h; active compounds read low; DMSO median 0, no signal -100 | GFP signal change (wild-type ribosome), % (no concentration beside the values);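 active means significant combined selectivity score with lowered wild-type GFP, culture density cut under 30%, mutant RFP and density less affected; inactive means any of these conditions unmet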; further: one replicate is shown; some compounds called inactive have numbers as strong as hits
FGF22 binding = binders of recombinant human FGF22 by thermal shift; Q9HCT0; calls only at 9.99 µM; SYPRO orange fluorescence; percent of sucrose octasulfate shift, DMSO zero; hit rate 1.5% among 340,000;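 active means melting point raised past a set limit in the mean and every replicate; three in four hits are not shown here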
Target sequence (Q9HCT0 whole entry, looked up): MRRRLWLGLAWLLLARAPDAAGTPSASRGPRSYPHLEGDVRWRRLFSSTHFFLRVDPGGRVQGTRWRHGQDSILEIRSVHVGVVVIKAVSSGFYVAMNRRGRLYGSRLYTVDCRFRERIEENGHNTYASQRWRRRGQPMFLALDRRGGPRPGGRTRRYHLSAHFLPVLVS
Ecoli growth = E. coli growth inhibition. Escherichia coli growth, OD600, 23 h; active compounds read low. OD600 absorbance (no concentration beside the values). hit rate 0.21% among 330,000;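 active means OD600 absorbance below the run mean of sample wells minus 3.6 SD, in any replicate, cut at about 0.56 in these data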;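 further: stock transfer was 300 nL into about 60 µL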
UCH37 DUB inh = blocks the human deubiquitinase UCH37; Q9Y5K5; purified proteasome/UCH37, Ub-AMC cleavage fluorescence; inhibition, % (test concentration not listed); hit rate 0.33% among 330,000; AID 588478;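 active means mean of two replicates above 20%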;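 further: 0% = compound-free wells with enzyme and 100% = wells lacking proteasome; stock transfer was 100 nL into about 20 µL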
Target sequence (Q9Y5K5 whole entry, looked up): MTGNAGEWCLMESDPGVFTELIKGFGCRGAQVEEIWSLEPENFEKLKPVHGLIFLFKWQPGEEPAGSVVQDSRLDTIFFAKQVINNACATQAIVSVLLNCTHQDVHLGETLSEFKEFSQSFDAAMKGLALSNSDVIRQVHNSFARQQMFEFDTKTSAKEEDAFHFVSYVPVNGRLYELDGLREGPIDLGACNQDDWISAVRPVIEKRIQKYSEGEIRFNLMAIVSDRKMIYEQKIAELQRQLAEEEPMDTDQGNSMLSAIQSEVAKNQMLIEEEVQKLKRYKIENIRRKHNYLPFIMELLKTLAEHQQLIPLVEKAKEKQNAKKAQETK
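Material: human UCH37 enzyme supplied as purified proteasome complex / Amount: 0.15 nM proteasome as dispensed / Buffer or medium: pH 7.4 Tris-HCl (50 mM) with ovalbumin, ATP-MgCl2, DTT / Times: preincubation 30 min, reaction 25 min, room temperature / Technique: AMC fluorescence from Ub-AMC cleavage, excitation 355 nm, emission 460 nm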
B2AR ag = activates human beta-2 adrenergic receptor causing internalization; hit rate 0.43% among 340,000; Am2.2-beta2AR cells, FAP receptor internalization, flow cytometry; reference of the scale not given here; P07550; response, % (no concentration beside the values);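 active means response above a set limit, near 3 SD of response in nonfluorescent compounds, cut at about 42% in these data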;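 further: stock transfer was 100 nL into about 11 µL; a reference agonist was the positive control; negative values mostly stem from fluorescent compounds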
HNF4A DNA FP = change in binding of human HNF4 alpha to DNA; AID 1224865; HNF4a-FITC DNA binding, fluorescence polarization, 1 h; activity change, % at 10 µM; hit rate 0.3% among 360,000; in the data active means activity change above about 30%, passing the limit was not always enough;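 further: controls were the assay level and a saturating level of protein; the project sought stronger binding though the title names inhibitors; some compounds called inactive have numbers as strong as hits; positive values seem to mean higher polarization but the record does not say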
Target sequence (P41235 whole entry, looked up): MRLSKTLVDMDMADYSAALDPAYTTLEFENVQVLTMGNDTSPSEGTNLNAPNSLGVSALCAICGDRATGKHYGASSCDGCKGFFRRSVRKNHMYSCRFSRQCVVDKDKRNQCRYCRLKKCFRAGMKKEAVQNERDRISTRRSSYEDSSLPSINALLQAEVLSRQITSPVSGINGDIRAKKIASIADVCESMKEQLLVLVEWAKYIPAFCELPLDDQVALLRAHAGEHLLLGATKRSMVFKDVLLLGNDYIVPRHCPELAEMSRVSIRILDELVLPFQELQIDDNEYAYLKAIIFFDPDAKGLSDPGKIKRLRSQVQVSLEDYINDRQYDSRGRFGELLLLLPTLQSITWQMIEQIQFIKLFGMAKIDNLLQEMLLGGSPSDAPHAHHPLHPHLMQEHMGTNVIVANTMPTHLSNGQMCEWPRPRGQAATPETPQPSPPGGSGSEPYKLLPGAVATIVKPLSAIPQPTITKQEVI
ALR H2O2 inh = human ALR oxidase inhibition via reduced H2O2 | P55789 | purified ALR, DTT oxidation, H2O2 HRP-luminol luminescence | inhibition, % (concentration not given with the values) | hit rate 3.8% among 290,000 | AID 485317;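 active means mean and each replicate at 75% or more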;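 further: stock transfer was 7.5 nL into about 7.5 µL; 0% = neutral wells and 100% = wells with inactivated enzyme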
rRNA inh HTS OD600 = recorded beside rRNA inh HTS, whose call it bears; OD600 change, %; measured here: OD600 growth;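 optical density of the mix in the first replicate; 0 = DMSO median and -100 = no signal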
rRNA inh HTS RFP = further read-out of rRNA inh HTS, marked with its call; RFP signal change, %; measured here: RFP humanized mutant strains;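 first replicate; 0 = DMSO median and -100 = no signal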
* hit, by the source's call; i = inactive; · = not tested or not shown. Not all compounds are listed. The share of hits here may be higher or lower than overall.

SMILES	rRNA inh HTS	rRNA inh HTS OD600	rRNA inh HTS RFP	FGF22 binding	Ecoli growth	UCH37 DUB inh	B2AR ag	HNF4A DNA FP	ALR H2O2 inh
O=C(NCCc1ccccc1)C1CCCN(S(=O)(=O)c2cccc3nonc23)C1 (configuration not stated)	·	·	·	·	0.75	1.8	-2	3.6	·
CN(c1ccc(C(=O)NCCSCc2c(F)cccc2Cl)cc1)S(C)(=O)=O	-14	-10	-4.1	i	0.71	3.5	2	0.3	-2
Cc1nc2sc3c(NCc4ccco4)ncnc3c2c2c1COC(C)(C)C2	·	·	·	·	0.74	3.9	-16	0.5	-1
Cc1[nH]n(-c2ccccc2)c(=O)c1/C=N/N1CCOCC1	7	14	9.6	i	·	·	-2	0.6	·
O=S(=O)(Nc1ccc(S(=O)(=O)Nc2nccs2)cc1)c1ccc2c(c1)OCCO2	·	·	·	·	0.69	2.1	-4	2.0	-2
O=C(c1ccc(Cl)c(Cl)c1)N1CCC(=O)N(C(COCc2ccccc2)Cc2ccccc2)CC1 (configuration not stated)	-8	-22	3.3	i	0.72	3.8	1	0.0	2
COc1cc(C=NOC(=O)Nc2ccccc2)cc(OC)c1OC	-19	-20	-0.4	i	0.66	3.8	3	2.0	·
Cc1nc(NC(=O)c2cncc(Br)c2)ccc1Br	6	11	3.0	i	0.67	2.1	2	-0.9	-11
Cc1nn(CC(=O)N2CC(=O)Nc3ccccc32)c(C)c1[N+](=O)[O-]	8	5	0.0	i	0.7	-1.8	-2	2.2	-9
Cc1ccc(-c2cc(N)n(-c3ccccc3)n2)cc1	·	·	·	·	0.68	3.8	-11	0.8	·
O=C(Nc1cccc([N+](=O)[O-])c1)c1cc(S(=O)(=O)Nc2ccccn2)ccc1Cl	-8	-1	0.9	i	0.71	2.6	3	4.8	-6
CCCn1c2ccc(/C(C)=N\O)cc2c2cc(/C(C)=N/O)ccc21	·	·	·	·	·	·	1	1.4	98*
COC(=O)c1cccc(C(=O)N2CCC(CCC(=O)NCc3ccc(F)cc3)CC2)c1	3	0	-2.4	i	0.69	2.9	8	1.4	-3
C=CCN1C(=O)NC2(CCCCC2)C1=O	·	·	·	·	0.66	-0.2	1	2.4	·
COc1ccc(/C=N/NC(=O)CN(c2ccc(OC)cc2)S(=O)(=O)c2ccccc2)cc1	9	24	1.5	i	·	·	20	0.1	-6

Individual results from the list:
For B2AR ag, CCCn1c2ccc(/C(C)=N\O)cc2c2cc(/C(C)=N/O)ccc21 reads 1
For rRNA inh HTS OD600, O=C(Nc1cccc([N+](=O)[O-])c1)c1cc(S(=O)(=O)Nc2ccccn2)ccc1Cl reads -1

Next part:
SMILES	rRNA inh HTS	rRNA inh HTS OD600	rRNA inh HTS RFP	FGF22 binding	Ecoli growth	UCH37 DUB inh	B2AR ag	HNF4A DNA FP	ALR H2O2 inh
O=C(NN1C(=O)C2C3c4ccccc4C(c4ccccc43)C2C1=O)C1CC1 (configuration not stated)	1	-7	1.1	i	0.66	-1.3	-2	-6.4	-6
Cc1ccccc1C(=O)Nc1cccc(C#N)c1	·	·	·	·	0.7	6.1	3	-1.7	0
CC(=O)c1ccc(OCCn2cnc3ccccc32)cc1	·	·	·	·	0.69	0.5	-3	-0.5	0
CSc1ncnc2c1ncn2CCCNCCc1ccccn1	11	19	-0.9	i	·	·	·	-1.2	·
O=S(=O)(NCC(c1ccco1)N1CCN(c2ccccc2F)CC1)c1ccc(F)cc1 (configuration not stated)	·	·	·	·	0.64	2.5	15	-2.5	0
Cc1ccc(SCc2c(C(=O)N/N=C/c3ccco3)nnn2-c2nonc2N)cc1	1	-4	0.6	i	·	·	·	0.8	·
CCN1CCN(CC(=O)Nc2ccc(Cl)c(Cl)c2)C(=O)C1=O	2	-3	-0.6	i	0.65	6.6	0	-1.0	-5
COc1ccccc1CNC(=O)COC(=O)c1cccc(-n2cnnn2)c1	4	5	-0.6	i	0.65	3.3	-3	0.5	·
COCCCNC(=S)N(CCN(C)C)Cc1cc2cc3c(cc2[nH]c1=O)OCCO3	7	9	1.7	i	0.62	-168	-5	0.6	·
Cc1cccc(-c2noc(CCCC(=O)Nc3ccc(C(N)=O)cc3)n2)c1	·	·	·	·	0.71	3.1	-4	0.0	-1
CC(C)c1ccc(S(=O)(=O)N2CCN(C(=O)CN3C(=O)NC(C)(c4ccccc4)C3=O)CC2)cc1 (configuration not stated)	18	10	0.9	i	0.7	-0.8	13	2.0	-10
Cc1cccc(C)c1NC(=O)N1C2CCCC1CC(NC(=O)C(C)(C)C)C2 (configuration not stated)	·	·	·	·	0.66	0.4	1	0.9	2
COc1ccc(C2CCCN2C(=O)Nc2ccc(Cl)cc2)cc1OC (configuration not stated)	-43	-69	-8.0	i	0.66	3.1	1	1.2	·
COc1ccccc1CC1(C)C(=O)Nc2c(Cl)cccc21 (configuration not stated)	-56	-74	-15	i	·	·	·	-3.4	·
CC1(C(=O)NS(=O)(=O)c2ccccc2)CCN1C(=O)Cc1ccc(-c2ccccc2)cc1 (configuration not stated)	-5	11	5.8	i	·	·	·	-0.6	·

Compounds listed so far that have an aryl thioether with sulfur outside any ring:
SMILES	rRNA inh HTS	rRNA inh HTS OD600	rRNA inh HTS RFP	FGF22 binding	Ecoli growth	UCH37 DUB inh	B2AR ag	HNF4A DNA FP	ALR H2O2 inh
CSc1ncnc2c1ncn2CCCNCCc1ccccn1	11	19	-0.9	i	·	·	·	-1.2	·
Cc1ccc(SCc2c(C(=O)N/N=C/c3ccco3)nnn2-c2nonc2N)cc1	1	-4	0.6	i	·	·	·	0.8	·

(cont.)
SMILES	rRNA inh HTS	rRNA inh HTS OD600	rRNA inh HTS RFP	FGF22 binding	Ecoli growth	UCH37 DUB inh	B2AR ag	HNF4A DNA FP	ALR H2O2 inh
O=c1c2ccccc2[nH]c(=S)n1Cc1ccc2c(c1)OCO2	6	11	-0.4	i	0.73	0.6	-11	0.4	30
CCOC(=O)C1=CN(Cc2ccco2)S(=O)(=O)N(CC)C1c1cccc(OC)c1 (configuration not stated)	-10	-13	2.4	i	0.7	1.2	7	-1.8	·
Cc1cc(C)c(C)c(S(=O)(=O)N2CCC(C(=O)NC3=NCCS3)CC2)c1C	0	9	1.6	i	0.71	1.9	-2	-0.4	·
COc1ccccc1NC(=O)CNC(=O)Cn1cnc2sc(C)c(C)c2c1=O	2	2	1.5	i	0.68	0.8	-5	-4.4	-5
CC1CCCN(C2(O)C(=O)Nc3ccc(Br)cc32)C1 (configuration not stated)	2	-1	-1.5	i	0.63	4.2	-1	3.3	0
CCOc1ncccc1C(=O)OCCN1C(=O)c2ccccc2C1=O	·	·	·	·	0.7	3.3	0	4.7	-2
O=C(CN1C(=O)c2ccccc2S1(=O)=O)NC1CCCCCC1	-6	1	8.5	i	0.74	3.0	0	1.5	61
CC(C)(CC(=O)O)CC(=O)Nc1ccc(Oc2ccc(C(C)(C)C)cc2)nc1	11	11	0.9	·	0.64	2.5	15	1.3	10
O=C(CCl)N1c2ccccc2Sc2c1ccc1ccccc21	-37	-46	-8.4	i	0.7	4.1	11	-2.5	·
C[C@H](NC(=O)c1ccccc1Cl)C(=O)NCCc1ccc(S(N)(=O)=O)cc1	5	14	-2.9	i	0.7	1.9	-1	5.1	-6
COCCn1c(=NC(=O)c2ccc(S(=O)(=O)N3CCc4ccccc4C3)cc2)sc2cc(OC)ccc21	·	·	·	·	0.68	-305	2	-1.9	-1
Cc1cccc(N2CCN(C3=NC(=O)C(Cc4ccccc4)S3)CC2)c1 (configuration not stated)	·	·	·	·	0.63	3.3	2	1.1	33
O=C(CSc1nncs1)NC1CCCc2ccccc21 (configuration not stated)	8	7	-3.8	i	0.7	4.5	4	1.5	-15
CCC(C(=O)NC1CCCCCC1)n1nc(C)n2c(cc3occc32)c1=O (configuration not stated)	-12	-21	3.4	i	0.7	3.6	-14	-1.4	-2
Cc1cccc(C2CC(c3ccc(F)cc3)Nc3nc(N)nn32)c1 (configuration not stated)	5	-3	1.4	i	0.7	-1.0	-1	-0.2	5
O=C(O)CCCC(=O)NCc1ccccn1	·	·	·	·	0.73	4.0	4	2.3	-6
CC(C)CC(=O)Nc1ccc(N2CCOCC2)cc1	·	·	·	·	0.73	1.0	-16	2.5	29
CC1(C)N([O-])C(c2ccccc2)=C[N+](=O)C1(C)C	·	·	·	·	0.71	7.8	2	-2.2	-1
CCn1cc(C(=O)NCC(OC)OC)c(=O)c2cc(S(=O)(=O)N3CCOCC3)ccc21	-1	16	-1.3	i	0.68	4.0	1	15	-18
Cc1ccnc(N2CCC(C(=O)NCc3ccc4c(c3)OCO4)CC2)n1	5	13	-3.6	·	0.72	-17	9	4.7	-15
C/C=C(\C)C(=O)Nc1cccc(C2=NOC3(C2)C[C@@H](C(N)=O)N(C(=O)/C(C)=C/C)C3)c1 (some centres not stated)	-3	13	-1.5	i	·	1.0	5	-0.1	-2
COc1ccccc1N1CCN(CC(=O)N2N=CCC2c2ccccc2)CC1 (configuration not stated)	0	-6	-2.1	i	0.71	2.6	6	-1.1	22
Cc1cc(-c2ccc(NS(=O)(=O)c3ccccc3)c(C)c2)ccc1NS(=O)(=O)c1ccccc1	-3	2	7.1	i	0.66	4.8	14	3.5	·
COc1ccc(S(=O)(=O)NC(N)=NCCc2ccccc2)cc1	8	4	5.2	i	0.68	2.5	0	-2.5	-4
CCN1C(=O)c2ccccc2S(=O)(=O)c2ccc(C(=O)NCCCN(CC(C)C)CC(C)C)cc21	-4	-31	-0.8	i	0.71	-1.9	8	3.9	·
COc1ccccc1-n1cnc2c(c1=O)c1nc3ccccc3nc1n2-c1ccc(C)cc1	4	1	-0.4	i	0.69	-1.9	4	15	-15
Cc1nc(NC(=O)/C=C/c2ccco2)sc1C	12	4	2.9	i	0.73	-1.4	-9	-0.2	·
Cc1ccc(C2=C(c3ccc([N+](=O)[O-])cc3)C(=O)OC2)cc1C	-24	-6	-9.4	i	0.71	7.1	6	12	21
C/C(Cc1ccccc1)=N\NC(=O)CNC(=O)c1cccc(Cl)c1	·	·	·	i	·	·	7	2.7	·
Cc1ccc(-n2nnnc2SCn2nnc3ccccc3c2=O)c(C)c1	·	·	·	·	0.65	3.4	-4	-5.8	0
COc1ccc(C(=O)NNC2=CC(=O)CC(C)(C)C2)cc1OC	·	·	·	·	0.67	-2.6	3	0.8	48
CCOc1ccc(OCCn2c(=S)[nH]c3ccccc32)cc1	-29	-42	5.3	i	0.63	2.2	-7	0.1	33

Six structures already listed, sorted by formula weight, lowest first.
SMILES	rRNA inh HTS	rRNA inh HTS OD600	rRNA inh HTS RFP	FGF22 binding	Ecoli growth	UCH37 DUB inh	B2AR ag	HNF4A DNA FP	ALR H2O2 inh
Cc1nc(NC(=O)/C=C/c2ccco2)sc1C	12	4	2.9	i	0.73	-1.4	-9	-0.2	·
CCOc1ccc(OCCn2c(=S)[nH]c3ccccc32)cc1	-29	-42	5.3	i	0.63	2.2	-7	0.1	33
COc1ccc(S(=O)(=O)NC(N)=NCCc2ccccc2)cc1	8	4	5.2	i	0.68	2.5	0	-2.5	-4
Cc1ccc(-n2nnnc2SCn2nnc3ccccc3c2=O)c(C)c1	·	·	·	·	0.65	3.4	-4	-5.8	0
CCn1cc(C(=O)NCC(OC)OC)c(=O)c2cc(S(=O)(=O)N3CCOCC3)ccc21	-1	16	-1.3	i	0.68	4.0	1	15	-18
Cc1cc(-c2ccc(NS(=O)(=O)c3ccccc3)c(C)c2)ccc1NS(=O)(=O)c1ccccc1	-3	2	7.1	i	0.66	4.8	14	3.5	·

Screening results: PubChem BioAssay, several laboratories
